Bioassay records deposited in PubChem by Broad Institute.
FGF22 binding: binders of recombinant human FGF22 by thermal shift; Q9HCT0; hit rate 1.5% among 340,000; AID 651658; SYPRO orange fluorescence; percent of sucrose octasulfate shift, DMSO zero; calls only at 9.99 µM;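 active means melting point raised past a set limit in the mean and every replicate; three in four hits are not shown here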
Target sequence (Q9HCT0 whole entry, looked up): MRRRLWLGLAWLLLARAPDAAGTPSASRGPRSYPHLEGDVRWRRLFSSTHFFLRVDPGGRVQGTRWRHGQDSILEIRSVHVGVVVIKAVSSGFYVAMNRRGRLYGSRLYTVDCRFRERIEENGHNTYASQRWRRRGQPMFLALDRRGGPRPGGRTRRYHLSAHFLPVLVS
AF4-AF9 inh: inhibitors of human MLL-AF4/AF9 interaction. AlphaScreen, biotin-AF4 peptide binding to FLAG-AF9. inhibition, % at 10 µM. hit rate 0.47% among 350,000. AID 651704;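 active means every replicate reaching a set inhibition limit, whatever the replicate mean, cut at about 25% in these data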;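 further: 0% = plate neutral control median and 100% = total signal loss; the record names both 10 and 1 µM as test concentration; the first replicate is given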
Target sequence (P42568 whole entry, looked up): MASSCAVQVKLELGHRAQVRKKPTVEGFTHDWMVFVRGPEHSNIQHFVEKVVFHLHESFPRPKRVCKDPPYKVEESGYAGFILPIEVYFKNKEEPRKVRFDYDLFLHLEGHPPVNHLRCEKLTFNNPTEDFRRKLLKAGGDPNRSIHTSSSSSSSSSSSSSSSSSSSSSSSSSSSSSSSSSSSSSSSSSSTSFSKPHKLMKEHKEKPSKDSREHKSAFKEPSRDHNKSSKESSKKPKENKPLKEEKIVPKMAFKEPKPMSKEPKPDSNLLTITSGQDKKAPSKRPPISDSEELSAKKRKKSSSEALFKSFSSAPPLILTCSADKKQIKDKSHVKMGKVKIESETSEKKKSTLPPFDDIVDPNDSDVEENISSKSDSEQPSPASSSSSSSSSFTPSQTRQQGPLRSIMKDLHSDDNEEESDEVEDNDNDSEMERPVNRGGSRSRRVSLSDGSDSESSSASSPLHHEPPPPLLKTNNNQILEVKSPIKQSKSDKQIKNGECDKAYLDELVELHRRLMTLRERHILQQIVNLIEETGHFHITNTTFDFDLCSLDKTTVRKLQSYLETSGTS
* marks the source's active call; other numbers are inactive results; i = inactive; + = active, no number. A portion of the library; the hit share may differ from the screen's.

Order of results: AF4-AF9 inh	FGF22 binding
COC(=O)[C@]12C[C@H](CC(=O)NCc3ccc(OC)c(OC)c3)C(=O)N(CCc3ccc(OC)c(OC)c3)C1=C[C@H](C(C)(C)C)O[C@@H]2C
    4.8	i
Cc1noc(C)c1NC(=O)N(C)C[C@@H]1Oc2c(NC(=O)Nc3ccc(F)cc3)cccc2C(=O)N([C@@H](C)CO)C[C@@H]1C
    2.4	i
COC(=O)[C@@H]1[C@@H](CO)[C@@H]2Cn3c(cccc3=O)[C@@H]2N1CC1CCOCC1
    -4.6	i
C[C@@H]1CN([C@@H](C)CO)S(=O)(=O)c2ccc(Br)cc2O[C@@H]1CN(C)C(=O)c1cnccn1
    -1.5	i
COc1ccc(S(=O)(=O)N2C[C@H](O)COC[C@@H]3O[C@@H](CC(=O)NCc4ccc(Cl)c(Cl)c4)CC[C@H]32)cc1
    0.7	i
C[C@H](CO)N1C[C@H](C)[C@H](CN(C)Cc2ccc(C(=O)O)cc2)Oc2c(NC(=O)Nc3ccc(F)cc3)cccc2C1=O
    -0.8	i
O=C(NCC[C@@H]1CC[C@H](NC(=O)C2CC2)[C@@H](CO)O1)c1ccc(F)cc1
    -2.7	i
O=C(O)C[C@@H]1C=C[C@H](NC(=O)c2ccncc2)[C@@H](CO)O1
    -2.8	i
C[C@H]1CN([C@@H](C)CO)C(=O)Cc2cc(NC(=O)CCCCCC(=O)Nc3ccccc3N)ccc2O[C@H]1CN(C)C(=O)Nc1ccc(F)cc1
    3.7	i
CCCNC(=O)C[C@H]1CC[C@H]2[C@H](COc3ccc(NC(=O)Nc4c(C)noc4C)cc3C(=O)N2C)O1
    -0.7	i
C[C@@H]1CN([C@@H](C)CO)C(=O)c2cc(NS(=O)(=O)c3ccc(F)cc3)ccc2O[C@H]1CN(C)C(=O)Nc1ccccc1
    -1.5	i
C[C@@H]1CN([C@@H](C)CO)C(=O)c2cc(NC(=O)CCCCCC(=O)Nc3ccccc3N)ccc2O[C@@H]1CN(C)CC1CCCCC1
    3.6	i
C[C@@H]1CCCCO[C@@H](CN(C)C(=O)Nc2ccccc2)[C@H](C)CN([C@H](C)CO)C(=O)c2cc(NS(=O)(=O)c3ccc(Cl)cc3)ccc2O1
    0.3	+
O=C(Nc1cccc(F)c1)N1CCCCN2[C@@H](CO)[C@H](c3ccc(C#CC4CC4)cc3)[C@@H]2C1
    19	i
COc1cccc(S(=O)(=O)Nc2ccc3c(c2)C(=O)N(C)C[C@@H](OC)[C@H](C)CN(C(=O)Cc2cccnc2)[C@@H](C)CO3)c1
    2.6	i
CCCNC(=O)[C@H]1[C@H](CO)[C@H]2Cn3c(cccc3=O)[C@H]2N1C(=O)CC1CC1
    -0.1	i
Cc1noc(C)c1NC(=O)Nc1ccc2c(c1)C(=O)N([C@H](C)CO)C[C@@H](C)[C@H](CN(C)C(=O)C1CCCCC1)OCCCC[C@@H](C)O2
    4.0	i
O=C(c1ccccn1)N1CC2(C1)[C@H](c1ccccc1)[C@H](CO)N2C(=O)CC1CC1
    -0.9	i
C[C@H]1CN([C@@H](C)CO)C(=O)c2cccc(NC(=O)Nc3ccc(C(F)(F)F)cc3)c2O[C@H]1CN(C)Cc1ccc(-c2ccccc2)cc1
    2.1	i
CC(C)CC#Cc1cnc2c(c1)C(=O)N([C@@H](C)CO)C[C@@H](C)[C@H](CN(C)C(=O)CN1CCOCC1)O2
    -1.9	i
O=C1N[C@H](Cc2ccccc2)COCc2cn(nn2)CC[C@H]1Cc1ccccc1
    -0.4	i
Cc1noc(C)c1NC(=O)Nc1ccc2c(c1)CC(=O)N([C@H](C)CO)C[C@@H](C)[C@@H](CN(C)S(=O)(=O)c1ccc(F)cc1)O2
    0.7	i
C[C@@H](NC(=O)C[C@@H]1C[C@H]2c3cc(NC(=O)C4CCOCC4)ccc3O[C@H]2[C@@H](CO)O1)c1ccccc1
    -0.6	i
C[C@@H]1CCCCO[C@@H](CN(C)C(=O)CCCN(C)C)[C@H](C)CN([C@@H](C)CO)C(=O)c2cc(NS(=O)(=O)c3cn(C)cn3)ccc2O1
    3.8	i
CC(C)NC(=O)Nc1ccc2c(c1)C(=O)N([C@@H](C)CO)C[C@H](C)[C@H](CN(C)S(=O)(=O)c1ccc(Cl)cc1)OCCCC[C@H](C)O2
    4.5	i
C[C@H]1CCCCO[C@H](CN(C)C)[C@@H](C)CN([C@@H](C)CO)C(=O)c2cc(NS(=O)(=O)c3ccc(F)cc3)ccc2O1
    -2.6	i
Cc1ccc(S(=O)(=O)N(C)C[C@@H]2Oc3cc(-c4cccc(F)c4)ccc3S(=O)(=O)N([C@@H](C)CO)C[C@@H]2C)cc1
    -2.8	i
Cc1noc(C)c1NC(=O)Nc1ccc2c(c1)C(=O)N([C@@H](C)CO)C[C@@H](C)[C@H](CN(C)CC1CC1)OCCCC[C@H](C)O2
    -5.8	i
C[C@@H]1CCCCO[C@@H](CN(C)C(=O)Nc2ccc3c(c2)OCO3)[C@@H](C)CN([C@@H](C)CO)C(=O)c2cc(NC(=O)c3ccccc3)ccc2O1
    0.4	i
CNC[C@@H]1OCCCC[C@H](C)Oc2ccc(NC(=O)c3ccccc3)cc2C(=O)N([C@@H](C)CO)C[C@H]1C
    -7.0	i
CC(C)NC(=O)N(C)C[C@H]1Oc2cc(C3=CCCC3)ccc2S(=O)(=O)N([C@@H](C)CO)C[C@H]1C
    -7.7	i
COCC#Cc1ccc2c(c1)O[C@@H](CN(C)Cc1cncnc1)[C@H](C)CN([C@@H](C)CO)S2(=O)=O
    -2.0	i
C[C@H](CO)N1C[C@H](C)[C@H](CN(C)C(=O)C2CCCCC2)Oc2cc(-c3ccc(C(=O)N(C)C)cc3)ccc2S1(=O)=O
    -0.4	i
CCCN(C)C[C@H]1OCCCC[C@@H](C)Oc2ccc(NS(=O)(=O)c3ccc(OC)cc3)cc2C(=O)N([C@H](C)CO)C[C@H]1C
    11	i
CO[C@@H]1CN(C)C(=O)c2cc(NC(=O)c3ccccc3F)ccc2OC[C@@H](C)N(C(C)=O)C[C@@H]1C
    0.0	i
CO[C@@H]1CN(C)C(=O)c2cc(NC(=O)c3ccc4c(c3)OCO4)ccc2OC[C@H](C)N(CC2CC2)C[C@@H]1C
    -1.8	i
C[C@@H]1CCCCO[C@H](CN(C)Cc2ccc(C(=O)Nc3ccccc3N)cc2)[C@@H](C)CN([C@@H](C)CO)C(=O)c2cc(NS(=O)(=O)c3ccc(Cl)cc3)ccc2O1
    6.4	i
CN(C)C(=O)c1ccc(-c2ccc(C3[C@H]4CNC[C@@H]3N4C(=O)Nc3cc(F)ccc3F)cc2)cc1 (stereo not given in full)
    8.7	i
C[C@@H]1CN([C@@H](C)CO)C(=O)c2cc(NC(=O)Nc3ccc(F)cc3)ccc2O[C@@H]1CN(C)S(C)(=O)=O
    -1.9	i
CCC(=O)N1CC2(C1)CN(C(=O)Cc1ccccc1)[C@@H](CO)c1c2c2ccc(OC)cc2n1C
    1.7	i

Five entries out of the list above, arranged by their value in AF4-AF9 inh, descending:
smiles	AF4-AF9 inh
CC(C)NC(=O)Nc1ccc2c(c1)C(=O)N([C@@H](C)CO)C[C@H](C)[C@H](CN(C)S(=O)(=O)c1ccc(Cl)cc1)OCCCC[C@H](C)O2	4.5
Cc1noc(C)c1NC(=O)Nc1ccc2c(c1)CC(=O)N([C@H](C)CO)C[C@@H](C)[C@@H](CN(C)S(=O)(=O)c1ccc(F)cc1)O2	0.7
CO[C@@H]1CN(C)C(=O)c2cc(NC(=O)c3ccccc3F)ccc2OC[C@@H](C)N(C(C)=O)C[C@@H]1C	0.0
CO[C@@H]1CN(C)C(=O)c2cc(NC(=O)c3ccc4c(c3)OCO4)ccc2OC[C@H](C)N(CC2CC2)C[C@@H]1C	-1.8
Cc1noc(C)c1NC(=O)Nc1ccc2c(c1)C(=O)N([C@@H](C)CO)C[C@@H](C)[C@H](CN(C)CC1CC1)OCCCC[C@H](C)O2	-5.8

The list continues:
Order of results: AF4-AF9 inh	FGF22 binding
CO[C@@H]1CN(C)C(=O)c2ccc(NS(C)(=O)=O)cc2OC[C@H](C)N(C(=O)C2CCCC2)C[C@@H]1C
    -0.8	i
CCC(=O)N1CC2(C1)CN(Cc1nccs1)[C@@H](CO)c1c2c2ccc(OC)cc2n1C
    -14	i
CCCNC(=O)NC[C@H]1[C@@H](c2ccc(C3=CCCC3)cc2)[C@H](CO)N1C(=O)CC
    -1.3	i
COc1ccc(-c2ccc3c(c2)[C@@H]2[C@@H](CCN2C(=O)NC2CCCCC2)[C@H](CO)N3C)cc1
    16	i
COc1ccc(S(=O)(=O)N[C@H]2C=C[C@@H](CC(=O)N3CCc4ccccc4C3)O[C@H]2CO)cc1
    -3.7	i
Cc1ccc(S(=O)(=O)Nc2ccc3c(c2)C(=O)N([C@@H](C)CO)C[C@H](C)[C@@H](CN(C)C(=O)Nc2c(C)noc2C)OCCCC[C@@H](C)O3)cc1
    -0.9	i
CCOC(=O)N(C)C[C@H]1OCc2ccccc2-c2ccccc2C(=O)N([C@@H](C)CO)C[C@@H]1C
    -3.1	i
C[C@H]1CN([C@@H](C)CO)C(=O)c2cc(C3=CCCC3)cnc2O[C@@H]1CN(C)Cc1ccccc1F
    -1.6	i
C[C@@H]1CN([C@@H](C)CO)C(=O)c2cc(NC(=O)Nc3ccc(F)cc3)ccc2O[C@@H]1CN(C)Cc1ccc(-c2ccccc2)cc1
    1.3	i
C[C@H](CO)N1C[C@H](C)[C@H](CN(C)C(=O)CCC(F)(F)F)OCCCC[C@H](C)Oc2ccc(NC(=O)NC3CCCCC3)cc2C1=O
    -1.9	i
CO[C@@H]1CN(C)C(=O)c2cc(NC(=O)NC(C)C)ccc2OC[C@H](C)N(Cc2ccc(-c3ccccn3)cc2)C[C@H]1C
    3.7	i
C[C@@H]1CN([C@@H](C)CO)C(=O)Cc2cc(NC(=O)C3CC3)ccc2O[C@H]1CN(C)S(=O)(=O)c1ccc(F)cc1
    -2.9	i
CNC[C@@H]1Oc2cc(-c3cncnc3)ccc2S(=O)(=O)N([C@H](C)CO)C[C@H]1C
    2.5	i
C[C@@H]1CN([C@@H](C)CO)C(=O)CCCn2nncc2CO[C@H]1CN(C)Cc1ccc(C(=O)O)cc1
    -0.4	i
C[C@@H]1CCCCO[C@@H](CN(C)Cc2ccccc2)[C@@H](C)CN([C@@H](C)CO)C(=O)c2cc(NS(=O)(=O)c3cccs3)ccc2O1
    5.1	i
CN(C)C(=O)C[C@H]1CC[C@H]2[C@@H](COc3ccc(NC(=O)NCc4ccccc4)cc3C(=O)N2C)O1
    -2.1	i
O=C(Nc1cccc(F)c1)N[C@H]1CC[C@H](CCn2cc(Cc3ccccc3)nn2)O[C@H]1CO
    -0.4	i
N#C[C@H]1[C@H](c2ccccc2)[C@@H](CO)N1C(=O)c1ccccc1F
    -0.5	i
CCCC(=O)Nc1ccc2c(c1)C(=O)N(C)[C@@H]1CC[C@H](CC(=O)NCCN3CCCCC3)O[C@@H]1CO2
    -1.2	i
CCC(=O)N1C[C@H](O)COC[C@H]2O[C@H](CC(=O)N3CCCCC3)CC[C@@H]21
    -2.1	i

Part of the list above, set out differently.
O=C1N[C@H](Cc2ccccc2)COCc2cn(nn2)CC[C@H]1Cc1ccccc1
  AF4-AF9 inh: -0.4 | FGF22 binding: i

C[C@@H]1CCCCO[C@@H](CN(C)Cc2ccccc2)[C@@H](C)CN([C@@H](C)CO)C(=O)c2cc(NS(=O)(=O)c3cccs3)ccc2O1
  AF4-AF9 inh: 5.1 | FGF22 binding: i

Following part
Order of results: AF4-AF9 inh	FGF22 binding
COc1ccc(S(=O)(=O)N(C)C[C@@H]2Oc3ccc(NC(=O)NC4CCCCC4)cc3CC(=O)N([C@H](C)CO)C[C@H]2C)cc1
    -0.1	i
COc1ccc(S(=O)(=O)N(C)C[C@H]2Oc3c(NC(=O)NC(C)C)cccc3C(=O)N([C@H](C)CO)C[C@H]2C)cc1
    -3.7	i
C[C@@H]1CCCCO[C@@H](CN(C)S(=O)(=O)c2ccc(F)cc2)[C@@H](C)CN([C@H](C)CO)C(=O)c2cc(NS(C)(=O)=O)ccc2O1
    -1.7	i
CN(C)C(=O)c1cccc(-c2ccc3c(c2)[C@@H]2[C@@H](CCN2C(=O)c2ccccc2F)[C@@H](CO)N3)c1
    0.8	i
CC(C)C#Cc1cnc2c(c1)C(=O)N([C@H](C)CO)C[C@@H](C)[C@@H](CN(C)C(=O)c1cccnc1)O2
    -3.2	i
COc1ccc(NC(=O)Nc2ccc3c(c2)C(=O)N([C@H](C)CO)C[C@H](C)[C@H](CN(C)CC2CC2)OCCCC[C@@H](C)O3)cc1
    8.6	i
COc1ccc2c3c([nH]c2c1)[C@H](CO)N(C(=O)c1ccccn1)CC31CN(S(C)(=O)=O)C1
    -2.3	i
CCCN(C)C[C@H]1OCc2cnnn2CCCC(=O)N([C@@H](C)CO)C[C@H]1C
    0.4	i
O=C(C[C@H]1C[C@H]2c3cc(NS(=O)(=O)c4ccc(F)cc4)ccc3O[C@H]2[C@H](CO)O1)NCc1cccc(F)c1
    3.2	i
CO[C@H]1CN(C)C(=O)c2ccc(NC(=O)Nc3ccccc3F)cc2OC[C@H](C)N(C(C)=O)C[C@H]1C
    1.6	i
O=C(C[C@@H]1CC[C@@H](NC(=O)c2cccc(F)c2)[C@@H](CO)O1)NCc1ccccc1
    -3.2	i
CS(=O)(=O)N1[C@@H]2c3ccc(C4=CCCCC4)c(=O)n3C[C@H]1[C@H](CO)[C@H]2C(=O)N1CCOCC1
    -22	i
CC(C)NC(=O)Nc1cccc2c1O[C@H](CN(C)C(=O)Nc1ccc(F)cc1)[C@@H](C)CN([C@@H](C)CO)C2=O
    -1.2	i
COc1ccccc1C#Cc1cnc2c(c1)C(=O)N([C@@H](C)CO)C[C@H](C)[C@@H](CN(C)S(=O)(=O)c1cn(C)cn1)O2
    0.1	i
CN1C(=O)c2cc(NC(=O)c3ccc(F)cc3)ccc2OC[C@H]2O[C@H](CC(=O)NCC3CCCCC3)CC[C@@H]21
    -8.4	i
